T cell HTS: T cell immune modulation candidate. 2C CD8+ T cell-vesicle binding, flow cytometry; hits give low values. calls only at 7 µM. hit rate 0.068% among 330,000;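 active = response, share of CD8 T cells binding vesicles, and their 90th percentile fluorescence all below set limits, cut at about 80% in these data, passing the limit was not always enough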
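Assay system – 2C mouse CD8+ T cells · Also added – QL9-loaded Drosophila micro-vesicles · Timing – Cell–vesicle co-incubation 1.5 h at 37 °C, staining 20 min on ice · Signal – flow cytometry of vesicle-bound cells · Measure – percent CD8+ FL2 mean versus row control · Controls – Peptide-free naked vesicles (low) and QL9 vesicles with 0.7% DMSO vehicle (high)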
PMI inhibition: MPI inhibition at elevated mannose 6-phosphate – biochemical, fluorescence intensity, high mannose 6-phosphate, primary screen (AID 1220); hit rate 0.66% among 190,000; inhibition, % at 20 µM; hits with a dose series show IC50 in µM; recombinant PMI enzyme, coupled fluorescence intensity; higher % means a stronger effect
P. falciparum M17LAP: P. falciparum M17LAP inhibitors, primary screen, biochemical, fluorogenic H-Leu-NHMec substrate, 1536-well (AID 1619). recombinant M17LAP, H-Leu-NHMec fluorogenic kinetic assay; higher % means a stronger effect. inhibition, % at 30 µM, or IC50 in µM where a hit was titrated. hit rate 0.38% among 220,000;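 active = compound inhibiting the enzyme by more than half at any dose during confirmatory dose-response retesting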;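 also: plate controls were full reaction with DMSO carrier for no effect and no enzyme background for full effect; strong numbers were not always called active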
M1AAP inhibition: malaria alanyl aminopeptidase activity blockers – biochemical, fluorogenic H-Leu-NHMec substrate, 1536-well (AID 1445). recombinant M1AAP, H-Leu-NHMec fluorogenic kinetic assay; higher % means a stronger effect. inhibition, % at 30 µM; hits with a dose series show IC50 in µM. hit rate 0.42% among 220,000;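 active = primary inhibition above the hit cutoff, then over 50% inhibition at one or more dose response concentrations, cut at about 23% in these data, passing the limit was not always enough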;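 also: plate controls were DMSO full reaction for no effect and no enzyme background for full effect; strong numbers were not always called active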
PMI inhibitors: MPI enzyme activity inhibition – biochemical, fluorescence intensity, coupled assay, primary screen (AID 1209) | purified PMI enzyme, coupled fluorescence intensity; higher % means a stronger effect | inhibition, % at 20 µM; hits with a dose series show IC50 in µM | hit rate 0.42% among 190,000;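 also: plate controls were DMSO vehicle for no effect and wells lacking substrate for full effect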
T cell HTS vesicle-bound %: further read-out of T cell HTS, marked with its call; double positive events, %; measured here: CD8+ vesicle-bound cell fraction;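 binding gate set so that unloaded-vesicle control wells show 10% double positive cells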
* hit, by the source's call; i = inactive; / = not tested or not shown; & = joins results of further samples. Rule as the data show it, unless noted: active = inhibition above about 50%; inactive = the rest. The list is partial; rates above refer to the full screens.

item | molecule | T cell HTS | T cell HTS vesicle-bound % | PMI inhibition
1 | O=c1[nH]c(=O)n(C2C[C@H](O)[C@@H](CO)O2)cc1C(F)(F)F (stereo partly drawn) | i | 19 | /
2 | O=C(Nc1ncn[nH]1)c1ccc(Cl)c(S(=O)(=O)N2CCCCCC2)c1 | i | 49 | 12%
3 | O=C(Nc1ncn[nH]1)c1cc(S(=O)(=O)Nc2cccc(C(F)(F)F)c2)ccc1Cl | i | 33 | -3%
4 | C[C@H]1O[C@H]1P(=O)(O)O | i | 29 | 27%
5 | CN1CCC[C@H]1c1cccnc1 | i | 27&35 | /
6 | COc1cc2nc(N3CCN(C(=O)c4ccco4)CC3)nc(N)c2cc1OC | i | 24&29 | 24%&7%
7 | COc1cc(/C=C/C(=O)/C=C(O)/C=C/c2ccc(O)c(OC)c2)ccc1O | i | 20 | /
8 | COc1ccc(-c2cc(NCc3ccccn3)n3ncnc3n2)cc1 | i | 27 | 21%
9 | COc1ccc2cc(C(C)C(=O)O)ccc2c1 (stereo not drawn) | i | 44 | /
10 | O=C(O[C@@H]1Cc2c(O)cc(O)cc2O[C@@H]1c1cc(O)c(O)c(O)c1)c1cc(O)c(O)c(O)c1 | / | / | 33%
11 | O=C1NN(c2ccccc2)C(=O)/C1=C/c1ccc(Sc2ccc(Cl)cc2)o1 | i | 57 | /

item | P. falciparum M17LAP | M1AAP inhibition | PMI inhibitors
1 | / | / | /
2 | -1% | -1% | 16%
3 | 5% | -4% | -2%
4 | -11%&5% | 10%&1% | 6%
5 | / | / | /
6 | -20%&-1% | 4%&-3% | -1%&8%
7 | / | / | /
8 | 8% | 23% | 7%
9 | / | / | /
10 | -2% | -1% | 67%*
11 | 10% | 2% | /

Given in markdown: entries from further up
| item | canonical_smiles | T cell HTS | T cell HTS vesicle-bound % | PMI inhibition | P. falciparum M17LAP | M1AAP inhibition | PMI inhibitors |
| --- | --- | --- | --- | --- | --- | --- | --- |
| 7 | COc1cc(/C=C/C(=O)/C=C(O)/C=C/c2ccc(O)c(OC)c2)ccc1O | i | 20 | / | / | / | / |
| 6 | COc1cc2nc(N3CCN(C(=O)c4ccco4)CC3)nc(N)c2cc1OC | i | 24&29 | 24%&7% | -20%&-1% | 4%&-3% | -1%&8% |

An excerpt from above, reduced to T cell HTS vesicle-bound % and M1AAP inhibition:
entry	compound	T cell HTS vesicle-bound %	M1AAP inhibition
5	CN1CCC[C@H]1c1cccnc1	27&35	/
3	O=C(Nc1ncn[nH]1)c1cc(S(=O)(=O)Nc2cccc(C(F)(F)F)c2)ccc1Cl	33	-4%
11	O=C1NN(c2ccccc2)C(=O)/C1=C/c1ccc(Sc2ccc(Cl)cc2)o1	57	2%
10	O=C(O[C@@H]1Cc2c(O)cc(O)cc2O[C@@H]1c1cc(O)c(O)c(O)c1)c1cc(O)c(O)c(O)c1	/	-1%
1	O=c1[nH]c(=O)n(C2C[C@H](O)[C@@H](CO)O2)cc1C(F)(F)F (stereo partly drawn)	19	/

Of the compounds above, 2 contain a carbonyl joined to an NH by a bond outside any ring.
item | molecule | T cell HTS | T cell HTS vesicle-bound % | PMI inhibition
2 | O=C(Nc1ncn[nH]1)c1ccc(Cl)c(S(=O)(=O)N2CCCCCC2)c1 | i | 49 | 12%
3 | O=C(Nc1ncn[nH]1)c1cc(S(=O)(=O)Nc2cccc(C(F)(F)F)c2)ccc1Cl | i | 33 | -3%

item | P. falciparum M17LAP | M1AAP inhibition | PMI inhibitors
2 | -1% | -1% | 16%
3 | 5% | -4% | -2%

High-throughput results: PubChem BioAssay, several laboratories
